# PABP FP inh = blocks human PABP binding to poly(A) RNA; fluorescence polarization; P11940; AID 2014; inhibition, % at 35 µM; hit rate 1% among 290,000;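 active = 50% or more with normal probe brightness, or confirmed in later tests; about a fifth of its hits are not listed in these tables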;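 note: calls also rest on retests at 20 µM and on dose response follow-up; controls were probe without protein and protein plus probe with vehicle; some compounds called inactive have numbers as strong as hits; many hits fall short of the cut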
# Target sequence (P11940 whole entry, looked up): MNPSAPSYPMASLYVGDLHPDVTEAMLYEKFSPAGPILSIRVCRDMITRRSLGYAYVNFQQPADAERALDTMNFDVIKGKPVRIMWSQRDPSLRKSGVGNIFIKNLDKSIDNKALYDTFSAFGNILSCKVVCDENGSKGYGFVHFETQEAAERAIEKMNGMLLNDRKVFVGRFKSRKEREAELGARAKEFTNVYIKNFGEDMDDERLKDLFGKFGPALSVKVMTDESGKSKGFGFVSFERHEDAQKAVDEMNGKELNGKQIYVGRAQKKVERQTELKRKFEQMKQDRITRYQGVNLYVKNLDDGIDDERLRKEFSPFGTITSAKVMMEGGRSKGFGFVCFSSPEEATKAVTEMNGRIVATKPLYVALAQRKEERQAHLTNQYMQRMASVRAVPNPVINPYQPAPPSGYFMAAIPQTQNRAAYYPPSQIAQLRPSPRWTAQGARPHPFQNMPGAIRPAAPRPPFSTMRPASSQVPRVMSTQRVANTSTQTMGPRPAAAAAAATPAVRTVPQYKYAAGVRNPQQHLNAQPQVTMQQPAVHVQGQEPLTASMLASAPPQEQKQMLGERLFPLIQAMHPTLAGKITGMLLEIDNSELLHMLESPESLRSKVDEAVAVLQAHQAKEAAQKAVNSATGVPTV
# UUG fidelity = yeast start codon fidelity modulation; activity score, % at 18.7 µM; hit rate 0.13% among 350,000; S. cerevisiae UUG-firefly luciferase reporter, luminescence/redox ratio;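 active = replicate mean at a twofold rise or more, about +100% in these data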;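 note: firefly luciferase made from a UUG start codon reports start codon fidelity; reporter light over untreated wells divided by growth signal over untreated wells; some hits fall short of that in this replicate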
# MT1-MMP act inh = MT1-MMP (human) activation inhibition. GFP/RFP ratio change, % at 20 µM. P50281. AID 651647. HT1080 RFP-PRO-GFP cells, GFP/RFP ratio fluorescence, overnight; percent of plate control window, DMSO zero. hit rate 0.061% among 360,000;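 active = GFP/RFP ratio change of at least 30% with cell ATP level not reduced by more than half and red fluorescence within 50% of control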; note: strong numbers were not always called active
#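 Assay system – RFP-PRO-GFP reporter HT1080 cells · Compound dosing – single dose of 20 µM compound, 1% DMSO final · Incubation – overnight compound exposure at 37 °C · Measure – GFP/RFP fluorescence ratio · Benchmarks – DMSO wells and RFP-L50D-GFP cells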
# eIF4H FP inh = inhibitors of RNA binding by human eIF4H. Q15056. hit rate 0.94% among 290,000. eIF4H fluorescence polarization binding assay. inhibition, % at 35 µM;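 active = 50% or more with normal probe brightness, or confirmed in later tests; about a fifth of its hits are not listed in these tables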;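 note: calls also rest on retests at 20 µM and on dose response follow-up; 0% = protein and probe with vehicle and 100% = probe without protein; strong numbers were not always called active; many hits fall short of the cut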
# Rce1 inh = blocks yeast Ras-converting enzyme; Q03530; yeast membranes, quenched prenylated peptide cleavage fluorescence; calls only; hit rate 0.27% among 290,000;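 active = fall in fluorescence gain of 50% or more versus controls, with final raw signal at or below 3038400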;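 note: plate controls were neutral control wells for no effect and wells lacking membranes for full effect; tested at 10 µM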
# Target sequence (Q03530 whole entry, looked up): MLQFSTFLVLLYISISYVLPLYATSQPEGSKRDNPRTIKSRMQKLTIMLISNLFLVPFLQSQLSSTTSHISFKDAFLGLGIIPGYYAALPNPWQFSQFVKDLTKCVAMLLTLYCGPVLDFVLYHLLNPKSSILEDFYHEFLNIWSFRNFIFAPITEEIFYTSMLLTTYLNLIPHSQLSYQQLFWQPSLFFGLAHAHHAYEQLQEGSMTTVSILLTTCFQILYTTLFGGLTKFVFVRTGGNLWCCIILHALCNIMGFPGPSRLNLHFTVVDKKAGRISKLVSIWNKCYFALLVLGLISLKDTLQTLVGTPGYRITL
# CSC inhib = blocks cancer stem cells. hit rate 1.1% among 300,000. cancer stem cell-like cells viability, luminescence. inhibition, % at 7.5 µM. AID 2717;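 active = mean at 75% or more and at least half the replicates too; tested in HMLE shEcad cells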;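 note: 0% = median of negative and 100% = median of positive control wells; the first replicate is given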
# Env fusion inh = blocks HIV Env-driven cell-cell fusion | AID 651610 | hit rate 1.1% among 360,000 | inhibition, % at 12.3 µM | HeLa-JRFL Env/CEM21 cell fusion, luciferase;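 active = mean replicate inhibition score of at least 50 and every replicate individually at or above 50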;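 note: 0% = plate neutral controls and 100% = maraviroc near 300 nM; one replicate is shown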
# eIF4H FP inh retest = recorded beside eIF4H FP inh, whose call it bears; inhibition, %; compound at 20 µM; confirmation average;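 mean of two retest wells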
# PABP FP inh retest = recorded beside PABP FP inh, whose call it bears; inhibition, %; compound at 20 µM; confirmation repeats;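 mean of two retest wells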
# MT1-MMP act inh RFP = second read-out of MT1-MMP act inh, no call of its own (marks repeat the call); RFP signal change, %; measured here: RFP expression control read;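 0 = vehicle wells; hits needed this value within 50% of zero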
# * marks the source's active call; other numbers are inactive results; i = inactive; . = no result given; + = active, no number; & = joins results of further samples.
# Start of the listing, in advance (14 entries):
SMILES,PABP FP inh,UUG fidelity,MT1-MMP act inh,MT1-MMP act inh RFP,eIF4H FP inh,Rce1 inh,CSC inhib,Env fusion inh,others
CCCC(=O)Nc1ccccc1NC(=O)c1cc(OC)c(OC)c(OC)c1,-4,-23,12,2,-1,i,-10,-17,
CCn1c(=O)c2cc(C(=O)N(C)CC(OC)OC)sc2c2ccccc21,-4,3,2,2,-12,i,-6,13,
O=C(Nc1ccccc1Cl)C(=O)c1cn(CC(=O)N2CCOCC2)c2ccccc12,4,-8,-3,1,-21,i,7,-27,
COc1ccc(/C=N\NC(=O)CCc2c(C)n[nH]c2C)c(OC)c1OC,0,1,0,0,7,i,-18,8,
COC(=O)c1cccc(NC(=O)NC2CCCN2S(=O)(=O)c2ccc(Cl)cc2)c1 (stereo unspecified),-1,.,7,5,4,i,.,.,
COc1cc([N+](=O)[O-])ccc1NC(=O)NCc1ccco1,16,.,0,-4,-5,i,.,1,
O=C(Cc1ccccc1F)NC1CCSc2ccccc21 (stereo unspecified),0,-12,-6,-2,3,i,5,5,
CC(C)Cc1cc(C(=O)Nc2sc3c(c2C#N)CCC3)no1,-3,-13,-7,-2,3,i,32,-13,
COc1cc(C(=O)NCC(=O)N2CCN(S(=O)(=O)c3ccccc3C(F)(F)F)CC2)cc(OC)c1OC,.,17,0,3,.,.,7,8,
O=C(c1ccco1)N1CCN(C(=O)C(Cc2ccccc2)NS(=O)(=O)c2cccs2)CC1 (stereo unspecified),-6,-15,-3,1,9,.,.,3,
CC(C)(C)N(NS(=O)(=O)c1ccc(F)cc1)c1ccccc1,-3,10,-4,2,11,i,-5,7,
Cc1ccc(/C=N/NC(=O)c2cccc(S(=O)(=O)N3CCOCC3)c2)o1,8,-9,-3,5,2,i,5,-4,
Cc1nc(-c2ccc(S(=O)(=O)N3CCN(C(c4ccccc4)c4ccccc4)CC3)s2)cs1,1,-12,-4,-2,0,i,8,11,
Cc1cccc(S(=O)(=O)NC(=O)C2(C)CCN2C(=O)C2(c3ccc(Cl)cc3)CCC2)c1 (stereo unspecified),.,-8,-2,2,.,.,.,-39,

# Main list, from the start:
SMILES,PABP FP inh,UUG fidelity,MT1-MMP act inh,MT1-MMP act inh RFP,eIF4H FP inh,Rce1 inh,CSC inhib,Env fusion inh,others
CCCC(=O)Nc1ccccc1NC(=O)c1cc(OC)c(OC)c(OC)c1,-4,-23,12,2,-1,i,-10,-17,
CCn1c(=O)c2cc(C(=O)N(C)CC(OC)OC)sc2c2ccccc21,-4,3,2,2,-12,i,-6,13,
O=C(Nc1ccccc1Cl)C(=O)c1cn(CC(=O)N2CCOCC2)c2ccccc12,4,-8,-3,1,-21,i,7,-27,
COc1ccc(/C=N\NC(=O)CCc2c(C)n[nH]c2C)c(OC)c1OC,0,1,0,0,7,i,-18,8,
COC(=O)c1cccc(NC(=O)NC2CCCN2S(=O)(=O)c2ccc(Cl)cc2)c1 (stereo unspecified),-1,.,7,5,4,i,.,.,
COc1cc([N+](=O)[O-])ccc1NC(=O)NCc1ccco1,16,.,0,-4,-5,i,.,1,
O=C(Cc1ccccc1F)NC1CCSc2ccccc21 (stereo unspecified),0,-12,-6,-2,3,i,5,5,
CC(C)Cc1cc(C(=O)Nc2sc3c(c2C#N)CCC3)no1,-3,-13,-7,-2,3,i,32,-13,
COc1cc(C(=O)NCC(=O)N2CCN(S(=O)(=O)c3ccccc3C(F)(F)F)CC2)cc(OC)c1OC,.,17,0,3,.,.,7,8,
O=C(c1ccco1)N1CCN(C(=O)C(Cc2ccccc2)NS(=O)(=O)c2cccs2)CC1 (stereo unspecified),-6,-15,-3,1,9,.,.,3,
CC(C)(C)N(NS(=O)(=O)c1ccc(F)cc1)c1ccccc1,-3,10,-4,2,11,i,-5,7,
Cc1ccc(/C=N/NC(=O)c2cccc(S(=O)(=O)N3CCOCC3)c2)o1,8,-9,-3,5,2,i,5,-4,
Cc1nc(-c2ccc(S(=O)(=O)N3CCN(C(c4ccccc4)c4ccccc4)CC3)s2)cs1,1,-12,-4,-2,0,i,8,11,
Cc1cccc(S(=O)(=O)NC(=O)C2(C)CCN2C(=O)C2(c3ccc(Cl)cc3)CCC2)c1 (stereo unspecified),.,-8,-2,2,.,.,.,-39,
COC(=O)C1=C(O)/C(=C/c2ccc(OCC(=O)Nc3ccc(OC)cc3)cc2)N=C1C,.,-17,0,6,.,.,.,6,
O=C(COC(=O)CNC(=O)c1ccc(F)cc1)Nc1cccc(S(=O)(=O)N2CCCC2)c1,-3,.,3,2,-11,i,-14,8,
CC(C)(C)c1ccc(S(=O)(=O)N2CCN(CC(O)COCC3CCCO3)CC2)cc1 (stereo unspecified),.,3,1,-1,.,.,.,26,
O=C(OCC#CCSc1nnc(-c2ccccc2)o1)c1cccs1,-6,-14,2,1,-21,i,.,-9,
Cc1ccc[n+](C(C)C(=O)c2ccc(Cl)cc2)c1 (stereo unspecified),1,-17,-1,-2,-4,i,-10,15,
O=C(Cn1cc([N+](=O)[O-])cn1)NCC1CCCO1 (stereo unspecified),-4,-26,-1,4,-5,i,-6,-7,
CC(Nc1nc(=S)nc(Nc2ccc(F)cc2)[nH]1)c1ccccc1 (stereo unspecified),-7,-14,5,-6,1,i,-14,8,
CCc1nn(C(CC)C(=O)NCCCc2ccccc2)c(=O)c2cc3occc3n12 (stereo unspecified),-2,-2,2,1,-3,i,3,8,
COc1ccc(-n2nc(C(=O)NCC(=O)NC3CCCC(C)C3C)c3ccccc3c2=O)cc1 (stereo unspecified),2,-4,4,-1,-2,i,-55,0,
Cc1ccc2nc(SCC(=O)NCc3ccco3)nc(=O)n2c1,.,-5,1,1,.,i,-6,-5,
O=C(NCc1cccs1)C(=O)c1cn(CC(=O)N2CCOCC2)c2ccccc12,-16,.,4,7,-5,i,.,-10,
# (listing goes on)
SMILES,PABP FP inh,UUG fidelity,MT1-MMP act inh,MT1-MMP act inh RFP,eIF4H FP inh,Rce1 inh,CSC inhib,Env fusion inh,others
O=C(N/N=C/c1ccccc1O)NC12CC3CC(CC(C3)C1)C2,-8,-14,6,-6,-5,i,37,-11,
COc1ccc(-c2sc3ccc(N4CCOCC4)cc3c2C#CCCO)cc1,.,7,-2,-11,.,.,123*,5,
COc1ccccc1C(=O)Nc1nnc([C@@H]2C[C@H](O)[C@@H](CO)O2)s1,.,-15,-1,4,.,.,.,-13,
COC(=O)c1sccc1NC(=O)CC1C(=O)NCCN1C(=O)Nc1ccccc1 (stereo unspecified),-1,-8,2,4,-3,i,-2,7,
Cc1nnc2sc(-c3ccc(-c4ccc(Cl)c(C(F)(F)F)c4)o3)nn12,7,-14,3,-6,-8,i,53,.,
Nc1nc(SCCO)[nH]c(=O)c1NC(=O)c1ccc(Br)o1,1,6,1,5,-3,i,-10,-180,
Cn1c(CNC(=O)C(Cc2ccccc2)NC(=O)c2ccccc2)cc(=O)n(C)c1=O (stereo unspecified),.,11,-10,-2,.,i,-14,-10,
CC1CC(c2ccccc2)n2nc(NC(=O)CCc3ccccc3)nc2N1 (stereo unspecified),-8,2,5,-3,-5,i,-1,.,
Cc1oc(S(=O)(=O)N2CCOCC2)cc1C(=O)Nc1ccc(F)cc1,10,.,0,-3,6,i,-10,2,
CC(C)(C)c1ccc(C(=O)N2CCCN(c3ccc([N+](=O)[O-])cn3)CC2)cc1,-4,-7,0,-15,-2,i,6,22,
CC(C)CC(=O)NC(=S)Nc1nc(-c2cccc3ccccc23)cs1,3,-5,.,.,0,i,67,-58,
CCN1CCCC1CNC(=O)CCNC(=O)c1cc(OC)c(OC)c(OC)c1 (stereo unspecified),-1,-12,-3,-1,-5,i,.,-11,
COc1cc(/C=N/n2cnnc2)ccc1OCC(=O)N1CCOCC1,5,.,5,1,-8,i,-6,-1,
Cc1nn2c(NCCN(C)C)c3c(nc2c1-c1ccccc1)CCCC3,-7,-13,7,-4,2,+,15,9,
CC(C)(CNC(=O)c1ccc([N+](=O)[O-])c(Cl)c1)CNC(=O)c1ccc([N+](=O)[O-])c(Cl)c1,-3,-2,4,-2,-4,i,43,.,
Cc1cc(C)n2nc(SCc3ncc(-c4ccccc4)o3)nc2n1,10,-12,-5,-2,-6,i,-6,-6,
O=C(NNC(=S)NC(=O)c1ccc(Br)cc1)c1cccc([N+](=O)[O-])c1,-2,-21,5,10,10,i,6,8,
Cc1ccc(C(=O)COC(=O)c2n[nH]c(=O)c3ccccc23)cc1,-1,-23,0,2,2,i,-8,.,
CCC(C)(C)NC(=O)C(c1ccncc1)N(C(=O)c1sc(C)nc1C)c1ccc(F)cc1 (stereo unspecified),2,.,-3,0,-1,i,7,26,
NC(=O)CSc1nc2ccccc2nc1SCC(N)=O,52,.,-4,-2,-11,i,-19,12,eIF4H FP inh retest=0;PABP FP inh retest=1
NC(=O)c1ccc(NS(=O)(=O)c2ccc(Br)s2)cc1,.,-9,-4,2,.,.,.,-11,
CCN1CCc2nc(NC(=O)c3ccc4c(c3)OCCO4)sc2C1,-6,-20,-13,3,0,i,9,-119,
CC(=O)c1ccc(NC(=O)CCCN2C(=O)/C(=C/C(C)=C/c3ccccc3)SC2=S)cc1,-6,-8,-8,-11,-9,i,-10,0,
CCCOc1ccc(N2C(=O)CC(N3CCN(CCN=CC4C(=O)CC(C)(C)CC4=O)CC3)C2=O)cc1 (stereo unspecified),-1,.,-1,1,6,i,-11,-8,
CCNc1ccc(C(=O)OCC(=O)N2c3ccccc3NC(=O)C2(C)C)cc1[N+](=O)[O-],-8,.,3,3,-10,i,1,.,
# (more compounds)
SMILES,PABP FP inh,UUG fidelity,MT1-MMP act inh,MT1-MMP act inh RFP,eIF4H FP inh,Rce1 inh,CSC inhib,Env fusion inh,others
O=C(NC1CCCCC1)N1CCCCCC1,0,-3,-2,0,3,i,-8,.,
COc1cc(Cl)c(C)cc1NC(=O)[C@@H]1CCCN1C(=O)c1cccs1,-23,.,-2,-1,-11,i,.,-43,
CS(=O)(=O)N(CC(=O)N/N=C/c1cccs1)c1cccc(Cl)c1Cl,1,24,2,-4,-10,i,-10,.,
Cc1ccnc(N/C=C(/NC(=O)c2ccccc2)C(=O)N/N=C\c2ccc(Cl)cc2)n1,14,-22,0,-1,-5,i,-18,18,
Cc1noc(C)c1S(=O)(=O)N(C)C[C@H]1OCCCC[C@@H](C)Oc2ccc(NC(=O)CCCN(C)C)cc2C(=O)N([C@H](C)CO)C[C@@H]1C,.,-2&8,2,4,.,.,.,6,
CCSc1c(-c2ccccc2)nc2c(C)cccc2c1C(=O)O,2,-5,-1,4,-13,.,-5,.,
CCOc1ccc(-n2c(SCC(N)=O)nc3sc4c(c3c2=O)CCN(C)C4)cc1,-3,-4,-4,4,-4,i,2,-5,
Cn1cccc1Cc1nnc(SCC(=O)NC2CCCC2)n1-c1ccc(F)cc1,-4,2,-1,4,5,i,8,1,
COc1ccc(C2C3=C(CCCC3=O)Nc3nc(C(F)(F)F)nn32)c(OC)c1OC (stereo unspecified),7,-2,-3,0,1,i,1,.,
CCOc1ccc(-c2nnc(SCC(=O)N3CCOCC3)o2)cc1,-1,-20,0,1,-17,i,-13,.,
COc1ccc(OC)c(/C=C/C(=O)OCC(=O)Nc2ccc(Cl)c(S(=O)(=O)N(C)C)c2)c1,3,-5,1,-4,3,i,1,-4,
